MenB inh: inhibitors of Mycobacterium tuberculosis MenB enzyme. P9WNP5. MenB enzyme assay, absorbance read-out; some hits fall short of the stated cut. inhibition, %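 (about 12 µg/mL by stock and volumes)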. actives 0.43% (n = 100,000);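 active = mean of two replicates above 30%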;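 also: 0% = no compound and 100% = wells with inactive enzyme; the first replicate is given; strong numbers were not always called active; inactives centre near -10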
Target sequence (P9WNP5 whole entry, looked up): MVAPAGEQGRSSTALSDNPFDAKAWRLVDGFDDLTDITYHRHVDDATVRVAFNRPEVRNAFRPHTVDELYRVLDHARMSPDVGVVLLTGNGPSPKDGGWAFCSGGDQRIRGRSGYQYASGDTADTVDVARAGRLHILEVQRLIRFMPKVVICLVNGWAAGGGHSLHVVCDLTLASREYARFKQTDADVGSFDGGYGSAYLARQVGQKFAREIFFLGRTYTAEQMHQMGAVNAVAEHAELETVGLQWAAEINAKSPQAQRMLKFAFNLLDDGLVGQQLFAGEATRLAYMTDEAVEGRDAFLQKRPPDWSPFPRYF
PV pol inh: poliovirus RNA polymerase inhibition; AID 588519; actives 0.66% (n = 150,000); P03300; poliovirus polymerase elongation, fluorescence polarization; hits give low values; % elongation, % (compound at 16.7 µg/mL); in the data active = % elongation below about 90%; also: some results filed as inactive read as strong as hits
Mtb MbtI inh: inhibitors of Mycobacterium tuberculosis siderophore enzyme MbtI. P9WFX0. inhibition, %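 (about 17 µg/mL by stock and volumes)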. actives 0.89% (n = 100,000). purified MbtI enzyme, fluorescence intensity read-out;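 active = above 50% in both replicates, above 80% if mildly self-fluorescent; inactive = the rest, strongly fluorescent compounds included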;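 also: 0% = mean of negative and 100% = mean of positive controls; one replicate is shown; some compounds called inactive have numbers as strong as hits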
Target sequence (P9WFX0 whole entry, looked up): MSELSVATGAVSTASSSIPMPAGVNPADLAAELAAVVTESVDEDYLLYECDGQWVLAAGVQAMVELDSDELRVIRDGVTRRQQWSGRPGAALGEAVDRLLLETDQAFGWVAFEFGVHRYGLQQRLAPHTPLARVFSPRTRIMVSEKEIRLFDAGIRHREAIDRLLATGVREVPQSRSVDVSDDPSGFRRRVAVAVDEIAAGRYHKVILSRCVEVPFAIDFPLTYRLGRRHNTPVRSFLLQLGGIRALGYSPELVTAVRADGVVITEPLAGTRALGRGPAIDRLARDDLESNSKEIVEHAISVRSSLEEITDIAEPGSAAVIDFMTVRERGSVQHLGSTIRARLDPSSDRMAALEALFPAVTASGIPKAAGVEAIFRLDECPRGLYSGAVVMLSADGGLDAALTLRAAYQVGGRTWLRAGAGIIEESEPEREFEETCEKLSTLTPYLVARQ
PV pol inh intensity: second read-out of PV pol inh, no call of its own (marks repeat the call); % elongation; measured here: total intensity read-out; formula for this scale not given here;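 total fluorescence in place of polarization; lower means less elongation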
Numbers without * were called inactive; i = inactive; / = no result given.

SMILES	MenB inh	PV pol inh	PV pol inh intensity	Mtb MbtI inh
Cc1onc(-c2c(Cl)cccc2Cl)c1C(=O)OC1=CC(=O)CC(C)(C)C1	-43	109	109	-7
NC(=S)/C(=C\c1ccccc1O)C(=O)O	-148	101	105	7
CCC(C)(C)NC(=O)Cc1ccc2c(c1)OCCO2	-1	102	106	-10
COc1ccc(S(=O)(=O)Nc2cc(Cl)c3oc(=O)sc3c2)cc1OC	-47	101	101	39
O=C1C(Nc2cccc(O)c2)=C(n2nnc3ccccc32)C(=O)c2ccccc21	-55	51*	41*	9
COC(=O)c1ccc(COc2ccc3c(C)cc(=O)oc3c2)o1	-18	100	101	8
Cn1c(Sc2nc3ccccc3n2C)nc2ccccc21	-56	103	100	7
CC(OC(=O)COc1ccc(-c2ccccc2)cc1)C(N)=O (configuration not stated)	6	94	96	4
O=C(Nc1ccc2nn(-c3ccccc3)nc2c1)c1ccccc1	-67	108	102	-239
Cc1ccc(S(=O)(=O)c2cc3ccccc3oc2=O)cc1	-2	100	102	36
O=C(CCC(=O)c1ccccc1)c1ccccc1	-34	/	/	-18
CCCCCCCCCCCCCCCC[N+](C)(C)CCN(Cc1ccc(OC)cc1)c1ncccn1	-9	100	100	-96
CCN(CC)CCSc1nnc(Nc2ccccc2)n1-c1ccccc1	-59	103	99	2
O=C(O)CCOc1ccc2c(c1)OCCO2	10	104	104	2
COC(=O)c1c(NC(=O)C2CC(=O)NN2C)sc2c1CCC2 (configuration not stated)	-21	/	/	-2
COc1ccc(-c2nc3scc(CCNC(=O)c4ccccc4)n3n2)cc1	-4	104	106	6
Cc1cc(NCCCN2CCCC2=O)n2c(nc3ccccc32)c1C#N	37*	104	111	70
O=C(NCc1ccccc1)c1nnc(CS(=O)(=O)c2ccccc2)o1	-16	99	102	6
COC(=O)C1CCCN(C(=O)C2CCCN2S(=O)(=O)c2cccc3nsnc23)C1 (configuration not stated)	-37	99	102	3
N#Cc1nn(-c2ccccc2)c(=O)n(Cc2ccc(Cl)cc2Cl)c1=O	-23	103	106	-5
CC(C)CN(CC(C)C)C(=O)Nc1ccc(F)cc1F	-2	102	101	-14
CN(Cc1cc2ccccc2[nH]c1=O)C(=O)C1CCCCC1	-6	101	107	78
CC1(C)OC(=O)N(c2ccccc2)C12C=Cc1cc3ccccc3cc1O2 (configuration not stated)	-9	111	112	/
O=S(=O)(c1ccc(-c2csc(=Nc3cccc(C(F)(F)F)c3)n2CCO)cc1)N1CCCC1	-13	99	109	/
CC(C)c1cc(NNC(N)=O)cc(C(C)C)c1O	-43	101	101	6

As a working copy, five of the compounds above:
SMILES	MenB inh	PV pol inh	PV pol inh intensity	Mtb MbtI inh
O=C(CCC(=O)c1ccccc1)c1ccccc1	-34	/	/	-18
CCCCCCCCCCCCCCCC[N+](C)(C)CCN(Cc1ccc(OC)cc1)c1ncccn1	-9	100	100	-96
CCN(CC)CCSc1nnc(Nc2ccccc2)n1-c1ccccc1	-59	103	99	2
O=C(O)CCOc1ccc2c(c1)OCCO2	10	104	104	2
COC(=O)c1c(NC(=O)C2CC(=O)NN2C)sc2c1CCC2 (configuration not stated)	-21	/	/	-2

Some values from above:
`Cc1cc(NCCCN2CCCC2=O)n2c(nc3ccccc32)c1C#N` in PV pol inh shows 104
`CC(C)c1cc(NNC(N)=O)cc(C(C)C)c1O` in PV pol inh intensity shows 101

The results go on:
SMILES	MenB inh	PV pol inh	PV pol inh intensity	Mtb MbtI inh
CC(CCc1ccccc1)NC(=O)CSc1cc(=O)n(C)c2ccccc12 (configuration not stated)	0	102	105	0
Cc1ccc(/C=C2\CN(Cc3ccccc3)C/C(=C\c3ccc(C)o3)C2=O)o1	-44	139	155	34
Cc1c(-n2c(=S)[nH]c3ccccc3c2=O)c(=O)n(-c2ccccc2)n1C	-1	100	103	7
C/C(=N\NC(=O)Cc1csc(N2CCOCC2)n1)c1ccccc1	21	103	102	-2
Cc1cc(C)n2nc(SC(C)C(=O)NC(=O)NC3CCCCC3)nc2n1 (configuration not stated)	-40	102	95	5
CCCOc1ccc(/C=C/C(=O)Nc2ccc(S(=O)(=O)Nc3ncccn3)cc2)cc1	-25	101	104	-13
Cc1ccc(-c2csc3nc[nH]c(=O)c23)cc1C	-8	104	114	/
CCCc1cc(=O)n2[nH]c(NC(=O)C(c3ccccc3)c3ccccc3)nc2n1	-8	103	102	-142
O=C(c1cccs1)N1N=C(c2ccccc2)CC1c1cccs1 (configuration not stated)	-28	105	103	38
CC(=O)Nc1ccc(SCC(=O)c2cc(C)n(C)c2C)cc1	4	102	105	-10
CCN(CC)CCN1C(=O)C2C3c4ccccc4C(c4ccccc43)C2C1=O (configuration not stated)	-2	101	104	-14
CC(C)c1nc(NCc2ccccc2)c(C#N)c2c1CCCC2	-54	101	102	18
CN(C)S(=O)(=O)c1ccc(C(=O)Nc2[nH]nc(N3CCCC3)c2C#N)cc1	5	103	96	4
CN(C)S(=O)(=O)c1ccc(NC(=O)C2CCC2)cc1	-10	101	104	-13
CCCCNC(=O)Nc1nc(-c2ccc(C)cc2)c(-c2ccc(C)cc2)o1	-4	107	103	-17
CC1=CC(=O)C(C(=O)/C=C/c2ccccc2)C(=O)O1 (configuration not stated)	-21	112	114	7
COC(=O)c1cc(Cl)c(NC(=S)NC(=O)C(C)(C)C)cc1OC	6	102	96	5
ClC1=NN(c2ccccc2)CC1	-17	100	104	0
CCOc1ccc(-c2ccc(=O)n(CC(N)=O)n2)cc1	-20	108	98	3
Cc1ccc(CC(C#N)Sc2n[nH]c(-c3ccccc3F)n2)cc1 (configuration not stated)	-34	104	101	-10
CCOC(=O)COn1c(=O)c(-c2ccc(Cl)cc2)[n+]([O-])c2ccccc21	-19	103	103	-14
O=C(Nc1nc2ccccc2s1)c1ccccc1	/	105	109	14
CCCn1c(SC)nc2ccccc2c1=O	-53	95	87	5
COC(=O)c1noc(-c2ccccc2)n1	-14	103	108	/
Cc1ccc(S(=O)(=O)CCC(=O)N2CCN(c3ccccc3)CC2)cc1	/	104	98	-8
(next part)
SMILES	MenB inh	PV pol inh	PV pol inh intensity	Mtb MbtI inh
CC1(C(=O)Nc2nccs2)Cc2ccccc2C(=O)O1 (configuration not stated)	-33	103	101	6
CCOC(=O)/C=C1\SCC(=O)N1CCOc1cccc(Br)c1	-21	104	108	5
CCCCOC(=O)Nc1ccc(N(C)C)cc1	-5	101	100	0
COc1ccc(C(=O)Cn2ccsc2=NC(C)=O)cc1	-8	101	104	2
CCCNC(=O)c1ccc(-c2nn(C)c(=O)c3ccccc23)cc1	8	99	102	10
Cc1nc(S(=O)(=O)N2CCC(NC(=O)c3ccccc3)CC2)cn1C	-2	108	113	-3
CCN(CC)S(=O)(=O)c1ccc(-c2nnc(SCC(=O)O)n2CC)cc1	20	99	101	30
Cc1cc(NNC(=O)c2ccccc2)nc(NNC(=O)c2ccccc2)n1	-40	100	103	4
Cn1cnc2c(cnn2-c2ccc(F)cc2)c1=O	-5	104	105	7
Cc1nc2c3ccccc3nc(SCc3cccc(C(F)(F)F)c3)n2n1	-11	102	102	10
c1ccc(CN2CCC(N3CCN(C4CCCCC4)CC3)CC2)cc1	-14	100	103	-17
CCCCN1C(=O)NC(C(F)(F)F)(C(F)(F)F)C2=C1CC(C)(C)CC2=O	2	103	104	-4
Cc1nn(CC(=O)NC2CCCC2)c2ccccc12	11	104	104	-1
Cc1ccc(O)c(-c2cc(C(F)(F)F)no2)c1	0	103	104	/
O=C1CCCC/C1=C/Nc1ccc(Br)cc1F	-40	104	101	-4
Cc1cccc(NC(=O)CSc2nnc(CSc3nc(C)cc(C)n3)o2)c1	-20	102	101	-6
CCC(=O)c1c(-c2ccccc2)nc2n(CCN(CC)CC)c3ccccc3n12	-3	98	93	-7
Cc1cc(C)cc(-n2c(=O)c3oc4ccccc4c3n(CC#N)c2=O)c1	-8	100	103	-12
Cc1ccc(C(=O)Nc2c(N)nc(SCC(=O)N3CCCc4ccccc43)[nH]c2=O)cc1	9	96	104	5
O=C(c1cc2c(c3ccccc13)NC1CCC2(C(F)(F)F)O1)C(F)(F)F (configuration not stated)	-374	107	106	2
COc1ccccc1NC(=O)Nc1ccccc1OC	-30	103	106	-4
CC(=O)Oc1ccc(C(=O)N2CCc3ccccc3C2)cc1	-5	102	99	/
CSc1nc(-c2ccc(Cl)cc2)nn1C(=O)N(C)C	3	109	107	9
O=C(NCC1CCCO1)c1cc2ncc(Br)cn2n1 (configuration not stated)	-42	99	103	-24
COc1cccc(NC(=O)CCNc2ccccc2C)c1	0	102	108	-2

Single records, from the list above:
Results for Cc1nc2c3ccccc3nc(SCc3cccc(C(F)(F)F)c3)n2n1 → MenB inh: -11; PV pol inh: 102; PV pol inh intensity: 102; Mtb MbtI inh: 10
Results for O=C(c1cc2c(c3ccccc13)NC1CCC2(C(F)(F)F)O1)C(F)(F)F (configuration not stated) → MenB inh: -374; PV pol inh: 107; PV pol inh intensity: 106; Mtb MbtI inh: 2
Results for Cn1cnc2c(cnn2-c2ccc(F)cc2)c1=O → MenB inh: -5; PV pol inh: 104; PV pol inh intensity: 105; Mtb MbtI inh: 7

Carrying on.
SMILES	MenB inh	PV pol inh	PV pol inh intensity	Mtb MbtI inh
CCCN1CC=C2C(C#N)=C(N)C(C#N)(C#N)C(C(C)C)C2C1 (configuration not stated)	-195	58	183	89
COc1ccccc1OCc1ccc(C(=O)Nc2ccccc2Cl)o1	10	101	101	5
Cc1cc(C)cc(OCc2ccc(C(=O)NN)o2)c1	2	103	109	/
CCOc1ccc2c(c1)-c1c(ssc1=Nc1ccc(NC(C)=O)cc1)C(C)(C)N2	-55	101	103	4
CCN1C(=O)/C(=C\c2ccc(-c3ccc(Br)cc3C(=O)O)o2)N(CC)C1=S	-325	105	105	-2
Cc1cc(OC(=O)N(C)C)cc(C)c1Cl	-4	101	101	-9
CCOc1nc(Cl)nc(N(C2CCCCC2)C2CCCCC2)n1	29	103	103	12
C=CCc1ccc(O)c(OC)c1	-3	101	102	-2
FC(F)(F)c1cc(-c2ccc3ccccc3c2)no1	10	102	108	/
O=c1cc(CSc2nc3ccccc3o2)[nH]c(=S)[nH]1	-43	100	106	27
COCC(C)NS(=O)(=O)c1c(C)cc(C)cc1C (configuration not stated)	-1	107	110	/
CCC1CCCCN1CN1C(=O)c2cc(Cl)c(Cl)cc2C1=O (configuration not stated)	17	104	100	12
COc1cc(C(=O)OC(C)C(=O)N2CCCc3ccccc32)ccc1OCc1c(C)noc1C (configuration not stated)	-14	105	108	4
CC1=Nn2c(nnc2-c2ccc(Cl)cc2)SC1	15	102	101	12
S=C(NCc1ccc2c(c1)OCO2)Nc1ccccc1	3	102	102	4
COc1ccc(-c2csc(-n3[nH]c(C)c(C(c4ccc(Cl)cc4)C(C#N)C(N)=O)c3=O)n2)cc1 (configuration not stated)	-4	101	101	-318
CN(c1ccc(OCC(=O)N2CCOCC2)cc1)S(=O)(=O)c1ccc(F)cc1	-12	105	108	-13
COc1ccccc1NC(=O)C(C)OC(=O)c1cccc(-n2cnnn2)c1 (configuration not stated)	-6	105	110	-17
O=c1[nH]c(-c2ccco2)nc2sc3c(c12)CCCC3	/	103	102	i
CCCOc1ccccc1NC(=O)C1CC(=O)n2c(nnc2-c2ccc(OC)cc2)S1 (configuration not stated)	-10	99	99	86
N#CCNC(=O)c1ccccc1Br	-16	101	101	-3
c1cn(CCCNc2ncnc3sc4c(c23)CCCCC4)cn1	-14	102	103	-18
CC(=O)Oc1ccc(C2OCC3C(C)C=C(C)C2C3C)cc1 (configuration not stated)	-16	101	107	-10
CCOC(=O)N1CCN(C(=O)c2ccc3c(c2)NC(=O)C(CSCc2ccccc2F)N3)CC1 (configuration not stated)	-15	73	198	67
CS(=O)(=O)NCc1nnc(SCC(=O)NC2CCCCC2)n1-c1ccc(F)cc1	-19	102	105	-5
New compounds follow:
SMILES	MenB inh	PV pol inh	PV pol inh intensity	Mtb MbtI inh
C#CCn1c(O)c(N=NC(=O)CNC(=O)c2ccccc2)c2ccccc21	-18	102	100	0
CN(C)C(=O)COc1ccc(S(=O)(=O)c2ccc(OCC(=O)N(C)C)cc2)cc1	1	101	101	5
O=c1ccc2nncn2[nH]1	-21	102	100	12
CN(C)/C=C(\C#N)c1cccc(C(F)(F)F)c1	10	101	98	12
CN1CCC(=NNC(=O)c2ccccc2)CC1	-9	102	105	-1
CCOC(=O)C1=C(CSc2ccc(Cl)cc2)NC(=O)NC1c1cc(C)ccc1C (configuration not stated)	-10	100	104	5
OCCn1c(CNc2cc(Cl)ccc2N2CCCCC2)nc2ccc(Cl)cc21	-15	103	110	15
COCC(=O)NC(C)c1nc2ccccc2n1Cc1cc(C)ccc1C (configuration not stated)	-12	104	105	12
Cc1c(OCC(=O)OCc2ccccc2)ccc2c1oc(=O)c1ccccc12	-7	111	116	/
Cc1ccc(C(=O)C(C)Sc2nncn2-c2ccccc2)cc1 (configuration not stated)	7	103	105	-1
CCN=c1scc(-c2ccco2)n1/N=C/c1ccsc1	-44	108	108	15
CC(C)c1ccc(C2SCC(=O)N2C)cc1 (configuration not stated)	2	103	97	14
COc1ccc(CNC(C)C(=O)NC2CCCCC2C)cc1 (configuration not stated)	14	97	102	-3
CCCCN(C)S(=O)(=O)c1cccc2cccnc12	-12	97	96	9
O=C(CCN1CCN(Cc2ccc3c(c2)OCO3)CC1)N1N=CCC1(O)C(F)(F)F (configuration not stated)	-67	105	110	-5

High-throughput results deposited in PubChem by ICCB-Longwood Screening Facility, Harvard Medical School.
